# Mtb hypoxia inh = PubChem AID 1159583 | M. tuberculosis hypoxia-regulated fluorescent reporter, fluorescence | fluorescence inhibition, % (no concentration beside the values) | 0.1% of 300,000 active;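 active = 35 to 45% if threefold the growth effect, above 45% if 1.5-fold the growth effect; inactive = the rest, general growth blockers included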;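 note: wells of about 50 µL received 100 nL stock; 0% = vehicle wells and 100% = reference inhibitor wells; whole bacteria with a GFP reporter of the hypoxia response; strong numbers were not always called active; many hits fall short of the cut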
# BJeLR viability = MLPCN primary cell-based screen for lethality selective to Ras in HRASV12 cells; BJeLR (HRASV12) viability, CellTiter-Glo ATP luminescence, 48 h; reference of the scale not given here; inhibition, % (concentration not given with the values); 0.17% of 300,000 active;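 active = replicate mean above 50%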;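 note: 50 nL library stock added to about 25 µL; numbers are from one replicate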
# RN4220 kill = growth inhibition of S. aureus RN4220, primary screen, OD600; 16 h; inhibition, % (no concentration beside the values); 0.33% of 330,000 active;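 active = z-score of -3 or lower and OD600 up to 0.18 on both plates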;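 note: plate controls were untreated cells for no effect and reference antibiotic for full effect; stock transfer was 100 nL into about 80 µL; one replicate is shown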
# Autofluor counter = compound fluorescence in toxin protease inhibitor counterscreen | 3.1% of 360,000 active | AID 624483 | fluorescence intensity (test concentration not listed) | compound autofluorescence counterscreen, microsphere flow cytometry; hits give high values;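 active = at least 3 SD above the mean of all compounds, about 16000 in these data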;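 note: 100 nL of 1 mM stock went into each well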
# Sa ugtP lethal = growth inhibition of ugtP-null S. aureus, primary screen, RN4220 ugtP deletion, OD600; 16 h; some inactives read as strong as hits; growth inhibition, % (no concentration beside the values); 0.54% of 330,000 active;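 active = z-score under -3 and OD600 up to 0.15 on both plates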;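 note: plate controls were untreated wells for no effect and antibiotic for full effect; wells of about 80 µL received 100 nL stock; the first replicate is given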
# PrP 5UTR inh = inhibition of PrP 5' UTR reporter expression. inhibition, % (concentration not given with the values). 0.35% of 340,000 active. AID 488862, 2010. cell-based PrP 5' UTR mRNA reporter, plate reader;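 active = every replicate at 50% or more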;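 note: 0 = median of the neutral control wells; tested in H4 reporter cells; numbers are from one replicate; inactives centre near -14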
# Mtb hypoxia inh growth = second read-out of Mtb hypoxia inh, no call of its own (marks repeat the call); growth inhibition, %; measured here: M. tuberculosis growth (absorbance);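 0% = vehicle and 100% = reference antibiotic; read after six days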
# An asterisk follows results filed as active; . = no result given.
1: Cc1ccccc1N(CC(=O)N/N=C/c1ccc(F)cc1)C(=O)c1ccccc1
2: COc1ccc(NC(=O)CCCC(=O)NCCc2ccc(OC)c(OC)c2)cc1
3: CCN(CC(=O)NC1CCS(=O)(=O)C1)S(=O)(=O)c1ccc(C)cc1C (centres undefined)
4: Cc1c(NC(=S)NC(=O)c2ccco2)c(=O)n(-c2ccccc2)n1C
5: COC(=O)c1ccc(NC(=O)c2ccc(C)cc2)o1
6: O=c1oc2c(CN3CCCCC3)c(O)ccc2cc1-c1nc2ccccc2[nH]1
7: COc1ccc(Cn2c(-c3ccc(Cl)cc3)c[n+]3ccccc23)cc1
8: CCOc1ccc(NCc2nnc(SCC(=O)Nc3cc(C)on3)n2-c2ccc(OC)cc2)cc1
screen / no.,1,2,3,4,5,6,7,8
Mtb hypoxia inh,.,14.9,3.9,4.1,.,-1.1,16.6,-0.6
Mtb hypoxia inh growth,.,-2.0,-2.0,-2.6,.,5.1,12.9,1.7
BJeLR viability,1.3,1.1,-0.7,0.1,0.4,.,17.4,-7.3
RN4220 kill,.,2.0,3.9,1.3,1.9,0.5,2.6,4.5
Autofluor counter,4205,.,2113,7382,2636,18384*,2180,5983
Sa ugtP lethal,.,4.1,3.1,3.7,2.3,5.9,-4.4,-4.9
PrP 5UTR inh,-5.5,-7.0,-1.7,2.5,-1.5,-15.4,-97.0,-42.8

# Along the list, as entered above.
# Mtb hypoxia inh growth, entries 1 to 7: ., -2.0, -2.0, -2.6, ., 5.1, 12.9
# PrP 5UTR inh, entries 1 to 7: -5.5, -7.0, -1.7, 2.5, -1.5, -15.4, -97.0

# (listing goes on)
9: Cc1ccc2nc(-c3ccccc3)cn2c1
10: Cc1ccc(NC(=S)NNC(=O)CSc2nc3ccccc3c(=O)n2-c2ccc(C)cc2)cc1
11: COc1ccccc1CNC(=O)COC(=O)c1c[nH]c2ccccc12
12: CCC(CC)C(=O)Nc1cc(C(=O)NCCc2ccccc2)ccc1Cl
13: CN1CCC(=NNC(=O)C(=O)Nc2ccc(F)cc2)CC1
14: Cc1noc(C)c1NC(=O)Nc1ccc2c(c1)C(=O)N([C@H](C)CO)C[C@H](C)[C@@H](CN(C)S(=O)(=O)c1cn(C)cn1)O2
15: COc1cccc(C(=O)N2CCC3(CC2)OCCO3)c1
16: O=C(CSc1nnc2c3c4c(sc3ncn12)CCCC4)NCc1ccco1
screen / no.,9,10,11,12,13,14,15,16
Mtb hypoxia inh,7.6,.,-6.1,3.6,4.3,7.2,4.7,2.9
Mtb hypoxia inh growth,14.6,.,-3.0,-4.9,-4.4,0.6,13.5,7.6
BJeLR viability,36.0,-9.6,.,-1.2,1.8,.,-4.5,-8.0
RN4220 kill,10.0,9.4,2.1,3.1,4.5,2.9,5.5,1.7
Autofluor counter,3010,2176,6106,6722,4752,3795,6520,4718
Sa ugtP lethal,-3.6,-11.4,-5.6,9.1,-1.4,0.4,7.3,-11.3
PrP 5UTR inh,86.6*,-19.9,3.1,-15.1,-26.7,-14.7,-17.2,-11.4

17: CN(C(=O)Cc1c(C(=O)O)n(C)c2ccccc12)c1cccc(C(F)(F)F)c1
18: CCOc1ccc(CNC(=O)CCS(=O)(=O)Cc2ccccc2C)cc1OC
19: CC12CCC(C(=O)NNC(=O)c3ccccc3)(OC1=O)C2(C)C (centres undefined)
20: O=C(CNC(=O)c1ccc(Cl)cc1)NNc1c(F)c(F)cc(F)c1F
21: COc1cc(CNn2c(C)n[nH]c2=S)cc(Br)c1OCC(=O)NC(C)(C)C
22: CCOc1ccc(S(=O)(=O)Nc2ccccc2C(=O)N2CCOCC2)cc1
23: C=CCNC(=O)COC(=O)COc1ccc(Cl)cc1C
24: Cc1ccc(CSc2nc3c(cc2C#N)CCC3)cc1
screen / no.,17,18,19,20,21,22,23,24
Mtb hypoxia inh,19.7,4.2,-3.8,3.1,10.0,-4.8,-0.5,14.3
Mtb hypoxia inh growth,9.4,-6.9,8.8,1.5,2.7,2.6,5.9,6.6
BJeLR viability,-0.3,-10.5,-0.8,.,-7.8,5.0,4.4,-8.6
RN4220 kill,16.5,-0.9,1.2,5.2,7.5,1.3,4.2,-9.2
Autofluor counter,3580,6062,6070,3634,3761,5701,3270,2340
Sa ugtP lethal,6.7,-3.6,-1.7,-3.7,3.0,8.3,8.5,-1.7
PrP 5UTR inh,-16.5,-5.3,-1.5,-12.4,-0.2,1.1,-1.6,-22.4

25: N#Cc1ccc(NC(=O)CCc2ccc(S(=O)(=O)N3CCOCC3)cc2)cc1
26: COC(=O)[C@H]1C[C@@H]1[C@H](NP(=O)(c1ccccc1)c1ccccc1)c1ccccc1
27: Cc1c(CN2CCc3c([nH]c4ccccc34)C2CC(C)C)cnn1C (centres undefined)
28: CC(=O)OCC(=O)C1CCC2C3CCC4=CC(=O)CC[C@]4(C)C3CC[C@]12C (some centres undefined)
29: CC1CCCC(C)N1C(=O)COc1ccc(-c2nnco2)cc1 (centres undefined)
30: OCCC1CN(Cc2ccn[nH]2)CCN1Cc1ccc(F)c(F)c1 (centres undefined)
31: C=C(C)COC(=O)c1ccccc1C(=O)OCC1(C)CO1 (centres undefined)
32: Nc1ncnc(NNC(=O)CNC(=O)c2c(F)cccc2Cl)c1[N+](=O)[O-]
screen / no.,25,26,27,28,29,30,31,32
Mtb hypoxia inh,6.5,.,1.4,-0.5,.,4.5,9.2,4.7
Mtb hypoxia inh growth,7.9,.,9.2,-8.0,.,4.5,5.7,-1.1
BJeLR viability,1.6,-1.0,8.4,.,10.6,2.4,.,20.6
RN4220 kill,2.3,.,3.2,-0.5,0.4,3.7,6.0,4.6
Autofluor counter,8851,4112,4873,.,4134,6071,3983,4040
Sa ugtP lethal,-2.4,.,1.8,-8.6,-0.1,13.0,6.9,-2.1
PrP 5UTR inh,6.2,-1.6,-5.5,.,-16.5,-4.2,-31.8,-8.4

33: CCN(CC)C(=O)Cc1cn(C)c2ccccc12
34: CCOc1ccc(C(=O)c2cccs2)cc1
35: COc1ccc(CCNC(=O)c2ccc(=O)[nH]n2)cc1OC
36: Cc1ccccc1NC(=O)COC(=O)/C=C/c1cn(-c2ccccc2)nc1-c1cccnc1
37: COc1ccc2cc(Br)ccc2c1CC(=O)NC(C)C
screen / no.,33,34,35,36,37
Mtb hypoxia inh,4.8,12.6,.,10.9,-2.4
Mtb hypoxia inh growth,5.5,13.9,.,5.6,1.5
BJeLR viability,2.1,-3.4,-2.6,9.1,12.8
RN4220 kill,1.8,12.0,-2.0,2.4,-2.5
Autofluor counter,2193,3594,5644,2790,4589
Sa ugtP lethal,-1.7,4.1,8.4,1.6,-1.5
PrP 5UTR inh,-16.0,-37.7,-9.2,-12.7,-21.0

# 3 entries from above, arranged by formula weight, highest first:
32: Nc1ncnc(NNC(=O)CNC(=O)c2c(F)cccc2Cl)c1[N+](=O)[O-]
35: COc1ccc(CCNC(=O)c2ccc(=O)[nH]n2)cc1OC
33: CCN(CC)C(=O)Cc1cn(C)c2ccccc12
screen / no.,32,35,33
Mtb hypoxia inh,4.7,.,4.8
Mtb hypoxia inh growth,-1.1,.,5.5
BJeLR viability,20.6,-2.6,2.1
RN4220 kill,4.6,-2.0,1.8
Autofluor counter,4040,5644,2193
Sa ugtP lethal,-2.1,8.4,-1.7
PrP 5UTR inh,-8.4,-9.2,-16.0

# Exported with each value named: 3 of the compounds above.
34) CCOc1ccc(C(=O)c2cccs2)cc1
  Mtb hypoxia inh: 12.6	Mtb hypoxia inh growth: 13.9	BJeLR viability: -3.4	RN4220 kill: 12.0	Autofluor counter: 3594	Sa ugtP lethal: 4.1	PrP 5UTR inh: -37.7

37) COc1ccc2cc(Br)ccc2c1CC(=O)NC(C)C
  Mtb hypoxia inh: -2.4	Mtb hypoxia inh growth: 1.5	BJeLR viability: 12.8	RN4220 kill: -2.5	Autofluor counter: 4589	Sa ugtP lethal: -1.5	PrP 5UTR inh: -21.0

35) COc1ccc(CCNC(=O)c2ccc(=O)[nH]n2)cc1OC
  Mtb hypoxia inh: .	Mtb hypoxia inh growth: .	BJeLR viability: -2.6	RN4220 kill: -2.0	Autofluor counter: 5644	Sa ugtP lethal: 8.4	PrP 5UTR inh: -9.2

# Compound activity from PubChem.
